# Screening results from PubChem.
# Rango-impB inh – qHTS Assay for Inhibitors of Rango (Ran-regulated importin-beta cargo) - Importin beta complex formation. Importin subunit beta-1 (Homo sapiens), Q14974. Rango CFP/YFP FRET sensor + importin beta, 45 min. Potency, µM (titrated, usually from 92.2 µM), inactives show top-dose inhibition of complex formation. 340,000 tested, 0.031% active. AID 540263, 2011; active = rising FRET ratio curve, often small or poorly fitted; inconclusive = mostly compound fluorescence or quenching in the first reads; inactive = flat curves in all reads;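 further: potency means the concentration at half of the fitted maximal effect; 0% = DMSO wells and 100% = buffer wells lacking importin beta; nearly all actives have a fitted effect of over 15% in size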
#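 FRET biosensor Rango (snurportin 1 IBB between N-terminal EYFP and C-terminal Cerulean), 50 nM in PBS/1 mM DTT/0.02% Tween-20/0.1% BSA, preincubated 5 min RT with compound; 0.125 microM importin beta added, 45 min RT, CFP/YFP FRET ratio read.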
# GLA inh pH 4.5 – qHTS Assay for Inhibitors of Human alpha-Galactosidase at pH 4.5. Alpha-galactosidase A (Homo sapiens), P06280. purified enzyme, 4-MU-alpha-Gal fluorescence, pH 4.5. activity change, negative = inhibition, % at 105 µM. 230,000 tested, under 10 active; inconclusive = small, poorly fitted or top-dose-only inhibition, or a rising curve; inactive = flat fitted curve, though single readings scatter; no compound was filed as active;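 further: 0% = full activity with enzyme and -100% = basal without enzyme; dose as in the result columns while the protocol names 77 µM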
# Target sequence (P06280 whole entry, looked up): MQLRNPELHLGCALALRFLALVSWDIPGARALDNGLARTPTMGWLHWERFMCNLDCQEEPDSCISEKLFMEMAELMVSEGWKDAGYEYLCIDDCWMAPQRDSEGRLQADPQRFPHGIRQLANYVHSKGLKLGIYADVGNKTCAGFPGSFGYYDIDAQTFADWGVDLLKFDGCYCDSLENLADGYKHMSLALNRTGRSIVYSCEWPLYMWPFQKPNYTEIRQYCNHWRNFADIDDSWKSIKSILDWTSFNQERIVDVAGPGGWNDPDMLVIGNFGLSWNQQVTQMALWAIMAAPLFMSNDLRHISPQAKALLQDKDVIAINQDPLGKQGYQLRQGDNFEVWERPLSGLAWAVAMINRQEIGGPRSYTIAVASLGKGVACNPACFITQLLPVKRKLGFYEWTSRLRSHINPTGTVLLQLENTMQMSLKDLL
# Rango dissoc inh – qHTS Assay for Inhibitors of RanGTP induced Rango (Ran-regulated importin-beta cargo) - Importin beta complex dissociation; Snurportin-1 (Homo sapiens) + GTP-binding nuclear protein Ran (Homo sapiens) + Importin …; Potency, µM (doses to about 46.1 µM), inactives show at the top dose activity change, negative = inhibition; 340,000 tested, 0.071% active; Biochemical FRET Rango-importin beta, RanGTP-induced dissociation; active means falling FRET ratio curve, often poorly fitted, with flat reads before Ran was added; inconclusive means other falling curves, or compound fluorescence or quenching; inactive means flat or rising ratio curve;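 further: potency means the concentration at half of the fitted maximal effect; % of control where 0% means no effect; nearly all actives have a fitted effect of over 45% in size; -100% = wells without RanGTP and RCC1; the record marks most hits as doubtful in a second field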
#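 Recombinant Rango FRET biosensor (EYFP–snurportin 1 IBB–cerulean CFP10) at 0.1 uM premixed with 0.25 uM importin beta in PBS, 1 mM DTT, 0.02% Tween-20, 0.1% BSA. Compound added 5 min; RanGTP-RCC1 (0.6 uM Ran, 2 mM GTP, 0.2 uM RCC1) then triggers release, read at 45 min.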
# miR-21 FLuc – qHTS Assay for Modulators of miRNAs and/orActivators of miR-21 | HeLa miR-21 FLuc reporter, luciferase, 48 h | 340,000 tested, under 10 active | AID 2288, 2010 | Potency, µM (doses to about 38.3 µM), for the others: top-dose reporter change, positive = more light; active = well fitted rising curve with a large enough effect; inconclusive = small, poorly fitted or top-dose-only effect; inactive = no such curve, though single readings can be large or run the other way;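 further: % of control where 0% means no effect; miR-21 action dims this reporter so a rising signal means less miR-21 action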
#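 HeLa cells stably expressing CMV-driven firefly luciferase with a downstream miR-21 binding sequence, endogenously expressing miR-21, were treated with titrations (up to about 40uM final) for 48 hours at 37 degree Celsius. Luciferase luminescence was read after lysis.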
# * = called active by the depositor; u = inconclusive; x = no result given; & = joins results of further samples. This is a subset; rates above refer to the full screens.
SMILES,Rango-impB inh,GLA inh pH 4.5,Rango dissoc inh,miR-21 FLuc
Cc1ccc(SCC(=O)OCC(=O)N(C)CC(=O)Nc2ccccc2Cl)cc1,-2.4%,x,-6%,x
O=C(CCN1C(=O)c2cccc([N+](=O)[O-])c2C1=O)Nc1nccs1,-4.7%,-3,-10%,0%
Cc1cc(C(=O)NCc2ccco2)on1,-1.4%,2,-4%,-4%
COc1cc2c(cc1OC)-c1cc(Nc3ccc(F)cc3)nc(=O)n1CC2,0.4%,x,9%,-25%
CCOc1ccc(NC(=O)Nc2ccon2)cc1,1.5%,x,6%,-24%
CCOc1ccc(S(=O)(=O)NC2=NCCCCC2)cc1,-1.3%,x,-3%,x
CN1CCN(CCCNC(=O)c2cn(C)c3ccc(S(=O)(=O)N(C)C)cc3c2=O)CC1,-0.5%,1,-1%,-3%
CCOc1cc(C=O)cc(Cl)c1OCC(N)=O,-2.1%,-1,3%,1%
O=C(O)c1cccc(N/N=C/C2=C(Cl)c3cc(Cl)ccc3SC2)c1,u,-6,u,-76%
Cc1nnc(N2C(=O)c3cccc4c([N+](=O)[O-])ccc(c34)C2=O)s1,u,x,u,2%
O=C(OCC(=O)N1CCCC1=O)c1ccc(F)c(S(=O)(=O)N2CCOCC2)c1,0.0%,x,10%,1%
CCCCC(CC)CN=C(N)NC(N)=NCCCCCCN=C(N)NC(N)=NCC(CC)CCCC (stereo not given),58µM*,-6,u,x
O=C(NC1CCCC1)c1cc(-c2ccc(Cl)cc2Cl)on1,-2.1%,x,-6%,-66%
CCN(C1CCS(=O)(=O)C1)S(=O)(=O)c1ccc(OC)c(OC)c1 (stereo not given),-3.1%,x,6%,x
CCN(CC(=O)NCc1ccco1)S(=O)(=O)c1ccc(OC)cc1,0.0%,x,0%,x
Cc1ccc(CNC(=O)CN2C(=O)COc3ccc(S(=O)(=O)N4CCCCC4)cc32)o1,0.0%,x,10%,-5%
CCOC(=O)N1CCN(CCC(=O)Nc2ccc(Br)c(C)c2)CC1,-2.1%,4,30%,-1%
O=C(c1ccc(F)cc1)n1cc(C(=S)N2CCOCC2)c2ccccc21,5.7%,1,-10%,-1%
COc1ccc(C=C2C(=O)OC(C)(C)OC2=O)cc1OC,-0.9%,5,11%,2%
O=C(CN1C(=O)C2C3C=CC(C3)C2C1=O)Nc1ccc2nccnc2c1 (stereo not given),-0.2%,4,-14%,-3%
O=C(OCC1OC(n2ncc(=O)[nH]c2=O)C(OC(=O)c2ccccc2)C1OC(=O)c1ccccc1)c1ccccc1 (stereo not given),-0.6%,x,16%,0%
CC(C)CCNc1nc2ccccc2nc1NS(=O)(=O)c1cccs1,-3.3%,-7,4%,3%
NC(=O)c1cccc([N+](=O)[O-])c1,-0.1%,x,-10%,x
CCC(CC)c1nnc(NC(=O)C2CSC3(C)CCC(=O)N23)s1 (stereo not given),-2.3%,x,-1%,x
CCOC(=O)c1ccc(-c2ccc(/C=N/NC(=O)c3cncc(Br)c3)o2)cc1,0.0%,2,-3%,-17%
# New compounds follow.
SMILES,Rango-impB inh,GLA inh pH 4.5,Rango dissoc inh,miR-21 FLuc
C/C(=N\NC(=O)c1cccc(S(=O)(=O)N2CCCC2)c1)c1cccs1,-3.3%,0,0%,-31%
O=C(N1CCN(c2ccccc2F)CC1)C1(c2cccs2)CCOCC1,-0.4%,-5,-4%,-8%
O=C(COn1nnc2ccccc21)NCC1CCCCC1,-0.7%,-1,-16%,-44%
Cc1cc(C)nc(NS(=O)(=O)c2ccc(N3C(=O)c4ccccc4C3=O)cc2)n1,3.3%,-10,26%,-7%
Cc1nc(-c2ccccc2)nc2[nH]c(-c3ccccc3)cc(=O)c12,2.0%,8,-5%,2%
O=C(c1ccc(Cl)cc1)c1c[nH]c(C(=O)NNc2cccc(Cl)n2)c1,8.4%,-4,-2%,1%
O=C(c1ccccc1F)N1CCN(c2ccc([N+](=O)[O-])c(NCc3cccnc3)c2)CC1,-0.1%,0,-5%,11%
COc1ccc(-c2cc3ccc(OCc4nn[nH]n4)cc3oc2=O)cc1,-1.5%,u,-2%,-14%
O=C(Oc1ccc(C(=S)N2CCCCC2)cc1)c1ccccc1,2.1%,2,29%,0%
O=[N+]([O-])c1ccc(Sc2n[nH]c(-c3ccccc3)n2)nc1,3.6%,-8,12%,-20%
OCC1(CCOc2ccccc2)CCN(Cc2ccccc2OC(F)F)CC1,-3.7%,x,-1%,-4%
COc1cccc(CNC(=O)CCS(=O)(=O)c2cccc3nsnc23)c1,-0.3%,-3,-5%,-6%
CCOC(=O)C(=Cc1ccc(OCc2ccc([N+](=O)[O-])cc2)c(OC)c1)C(=O)OCC,2.8%,-3,16%,-37%
CN(CCOC(=O)c1cccc(F)c1)Cc1ccccc1,-2.6%,-11,-12%,-3%
CSc1ccc(C(=O)NCC(=O)O)cc1[N+](=O)[O-],0.5%,-1,-1%,-4%
CNC(=O)COC(=O)c1ccc(OCC(=O)Nc2ccccc2OC)c(OC)c1,-2.5%,16,4%,-4%
CC(C)CN(C(=O)CCNC(=O)c1ccc([N+](=O)[O-])cc1)C1CCS(=O)(=O)C1 (stereo not given),u,x,u,x
C/C(=C\c1ccccc1)C(=O)NC1CCSC1=O (stereo not given),-0.5%,-2,1%,-15%
Cn1nc(C(F)(F)F)c(/C=N/OC(=O)c2ccccc2Cl)c1SCc1ccccc1Cl,-2.8%,-7,-9%,-4%
Cc1sc2nc(CN(C(=O)NC3CCCCC3)C3CCCC3)[nH]c(=O)c2c1C,-2.7%,-10,1%,-8%
O=C(Nc1ccc2c(c1)OCCO2)C1CCCN1C(=O)Nc1ccccc1 (stereo not given),-1.9%,x,-13%,5%
CC(C)N(Cc1cc2ccccc2[nH]c1=O)C(=O)c1cccc([N+](=O)[O-])c1,-5.4%,2,14%,-2%
O=C(c1ccc(-n2cncn2)c([N+](=O)[O-])c1)N1CCN(S(=O)(=O)c2c(F)cccc2F)CC1,0.3%,x,-10%,x
CCCc1nnc(SCC(=O)N2CCCC(C)C2)n1CCCOC (stereo not given),2.5%,-7,19%,-5%
O=C(N/N=C/C(Cl)=C/c1ccccc1)c1ccc2c(c1)OCO2,-1.0%,x,-15%,x

# Entries shown so far that contain a COOH group, in the order listed:
SMILES,Rango-impB inh,GLA inh pH 4.5,Rango dissoc inh,miR-21 FLuc
O=C(O)c1cccc(N/N=C/C2=C(Cl)c3cc(Cl)ccc3SC2)c1,u,-6,u,-76%
CSc1ccc(C(=O)NCC(=O)O)cc1[N+](=O)[O-],0.5%,-1,-1%,-4%

# Further compounds.
SMILES,Rango-impB inh,GLA inh pH 4.5,Rango dissoc inh,miR-21 FLuc
CCOC(=O)N1CCN(C(=O)c2ccc(Cl)c(S(=O)(=O)Nc3ccccc3)c2)CC1,2.0%,2,-9%,-12%
COc1cc2c(cc1NC(=O)C(C)Sc1cccc[n+]1[O-])oc1ccccc12 (stereo not given),-2.2%,3,-9%,-52%
C=C1c2ccccc2S(=O)(=O)N(Cc2ccccc2)C1COCc1ccccc1 (stereo not given),0.0%,1,3%,0%
COc1nn(CC(=O)N2N=C(C)CC2(O)C(F)(F)F)cc1[N+](=O)[O-] (stereo not given),u,-17,u,0%
O=C(NCCN1CCCC1)C1CC(=O)N(C2CCCCC2)C1 (stereo not given),1.7%,3,-9%,-5%
CCOC(=O)Cn1c(=O)oc2cc(S(=O)(=O)NCCC(C)C)ccc21,1.5%,-3,-10%,1%
CCc1cc2c(-c3ccccc3)cc(=O)oc2cc1OC(C)C(C)=O (stereo not given),-0.3%,x,-6%,0%
CCOC(=O)C1CCN(C(=O)c2cc3cc4cc(OC)ccc4nc3o2)CC1,0.4%,1,5%,-34%
CC1(C)CC(=O)C2=C(C1)Oc1ncn3nc(-c4cccnc4)nc3c1C2c1ccccc1 (stereo not given),-1.1%,0,-19%,-3%
Cc1ccc(CSCCNC(=O)CN(c2ccccc2)S(C)(=O)=O)cc1,4.0%,7,15%,-1%
Nc1ccc(C(=O)N/N=C/c2c[nH]c3ccccc23)cc1,-1.1%,x,-4%,-25%
NC(=O)C1CCCN(C(=O)c2ccc(-c3cccc(Cl)c3Cl)o2)C1 (stereo not given),1.7%,x,-13%,x
Cc1ccc(NC(=O)Cn2cc(S(=O)(=O)c3ccc(C)cc3)c(=O)c3cc(F)ccc32)cc1,-4.3%,-6,1%,0%
CCC(=O)N1N=C(c2ccc(NS(C)(=O)=O)cc2)CC1c1ccc(C)cc1 (stereo not given),6.3%,26,5%,-32%
COc1nc2ccccc2nc1N1CCN(Cc2ccc3c(c2)OCO3)CC1,-1.7%,x,-4%,-2%
CCOc1cc(S(=O)(=O)N2CCC(c3nc4ccccc4s3)CC2)c(OCC)cc1S(=O)(=O)N1CCCCC1,-3.3%,7,7%,-3%
Cc1ccccc1/C=N/NC(=O)Cc1ccc(Cl)cc1,0.0%,2,3%,0%
CCS(=O)(=O)N1CCC(C(=O)NCCc2ccccc2)CC1,0.1%,12,6%,-10%
CCC12CN3CCN(CC(C3)/C1=N\NC(=O)c1ccc(C(C)(C)C)cc1)C2,2.3%,2,-12%,-3%
Cc1cc2c(cc(C(=O)OCC(=O)NC3CCCCC3)n2C)o1,1.3%,x,-2%,x
CC(=O)CCCC(NS(=O)(=O)CCC(Cl)(Cl)Cl)c1ccccc1 (stereo not given),3.1%,x,1%,-4%
Cc1nn(-c2ccc(Cl)c(Cl)c2Cl)c(=O)c2ccccc12,1.4%,4,-8%,-4%
COc1ccc(CC(=O)Nc2cc(C)ccn2)cc1,-3.0%,-5,0%,-33%
CC(=O)N1N=C2c3ccccc3CCC2C1c1ccc(F)cc1 (stereo not given),-5.0%,-10,-13%,15%
CC(C)Cn1c2c(c(=O)[nH]c1=O)C(C(F)(F)F)(C(F)(F)F)N=C(CCC1CCCCC1)N2,-3.8%,-7,-4%,10%

# An excerpt from further up:
SMILES,Rango-impB inh,GLA inh pH 4.5,Rango dissoc inh,miR-21 FLuc
NC(=O)C1CCCN(C(=O)c2ccc(-c3cccc(Cl)c3Cl)o2)C1 (stereo not given),1.7%,x,-13%,x
Cc1ccc(NC(=O)Cn2cc(S(=O)(=O)c3ccc(C)cc3)c(=O)c3cc(F)ccc32)cc1,-4.3%,-6,1%,0%

# Following part
SMILES,Rango-impB inh,GLA inh pH 4.5,Rango dissoc inh,miR-21 FLuc
CCCC(=O)Nc1ccc(C#Cc2ccccc2)cc1,-3.4%,1,-5%,-30%
Cc1ccc(S(=O)(=O)N2C(=O)CCC2C(=O)N2CCCCC2)cc1 (stereo not given),1.1%,x,2%,2%
Cc1cccc(C(=O)NCc2nnc(SCC(=O)NC3CCCC3)n2C)c1,-0.1%,x,15%,1%
Cc1cc(N)n(-c2ccccn2)n1,-1.0%,1,6%,-20%
O=C(O)CCNC(=O)/C(=C/C=C/c1ccccc1)NC(=O)c1ccccc1,5.8%,-3,19%,0%
Cc1cc2c(s1)c1cnn(-c3ccccc3)c(=O)c1n2C,0.5%,x,-10%,x
CCNC(=S)Nc1sc2c(c1C#N)CCC(C)C2 (stereo not given),1.6%,-5,0%,-2%
O=C(/C=C/c1ccc(O)cc1)c1c(O)cc(O)cc1O,0.0%,-3&1,-3%,-20%
COc1ccc(NS(=O)(=O)c2ccc(N3CCOCC3)c(NC(=O)c3ccccc3Cl)c2)cc1,1.2%,-14,0%,-8%
C/C(=N\Nc1cccc2cccnc12)c1ccccc1O,-1.5%,5,12%,-59%
CCn1c(SCC(=O)Nc2cccc(C)c2)nc2nc3c(cc2c1=O)COC(C)(C)C3,-2.7%,0,-2%,6%
CCCSc1nc2cc(C)c(C)cc2n1CC(C)O (stereo not given),-0.1%,10,-1%,-36%
CCOC(=O)Cc1cc(=O)[nH]c(/N=C(\N)Nc2ccc(C)c(C)c2)n1,1.7%,-1,9%,-3%
CCOC(=O)c1c(C)oc2c1c(C=NC1CCS(=O)(=O)C1)c(O)c1ccccc12 (stereo not given),u,0,-15%,2%
